VACV Venus inh = vaccinia inhibition (Venus reporter); Potency, µM (doses to about 36.5 µM), inactives show at the highest dose activity change, negative = inhibition, actives largely listed as inhibitors; 330,000 compounds, 0.46% hits; Vaccinia virus Venus reporter expression, fluorescence; AID 720580; active means well fitted inhibition curve with a large enough effect; inconclusive means small, poorly fitted or top-dose-only effect; inactive means no such curve, though single readings can be large or run the other way; tested in A549 cells; note: nearly all actives have a fitted effect of over 30% in size; inactives centre near -10
Vaccinia mCherry = inhibitors of vaccinia virus infection (mCherry reporter signal); Vaccinia virus mCherry reporter infection, fluorescence; about a quarter of the inactives have no number; Potency, µM (titrated, usually from 36.5 µM), inactives show at the top dose activity change, negative = inhibition, hits mostly inhibitors; 310,000 compounds, 0.63% hits; AID 720579; active = well fitted inhibition curve with a large enough effect; inconclusive = small, poorly fitted or top-dose-only effect; inactive = no such curve, though single readings can be large or run the other way; tested in A549 cells; note: nearly all actives have a fitted effect of over 35% in size; inactives centre near -10
Numbers without * were called inactive; i = inactive; ? = inconclusive; nt = no result given; [ ] = another dose, or the depositor's remark. % is set by controls: 0 for no effect and ±100 for the full control effect; potency is the fitted concentration of half-maximal effect.

SMILES	VACV Venus inh	Vaccinia mCherry
Cc1cnc(C(=O)Nc2cc(S(=O)(=O)N3CCOCC3)ccc2N2CCN(C)CC2)cn1	-7%	0%
O=C(O)Cc1csc(-c2cccc(F)c2)n1	-14%	-7%
CCOC(=O)c1c(C)n(C)c2ccc(OC(=O)c3ccoc3)cc12	-13%	i
COc1cccc(C(c2cccc(OC)c2)c2ccccc2C(=O)O)c1	-17%	-4%
COc1ccccc1N/C(=N/S(=O)(=O)c1ccc(C)cc1)c1ccc(Cl)cc1	-11%	i
Cc1ccc(-n2ncc3c2CCCC3NC(=O)c2ocnc2C)cc1C (configuration not stated)	-29%	-8%
NC(=O)c1cccc(N=Cc2cc(Cl)cc(Cl)c2O)c1	-17%	-4%
COc1cc(OC)c(OC)cc1CN1CCc2nc(N3CCN(c4ccccc4F)CC3)ncc2C1	?	?
CC(C)C(NC(=O)CNC(=O)OC(C)(C)C)C(=O)NCc1ccc(Cl)cc1 (configuration not stated)	4%	i
Cc1ccc(-n2nc3ccc(NC(=O)COc4ccccc4)cc3n2)cc1Cl	-11%	-9%
Cc1nnc(SCCCCSc2nnc(C)c(=O)[nH]2)[nH]c1=O	-18%	-12%
CCCS(=O)(=O)NC(=O)C1(C)CCN(C(=O)c2cccnc2Oc2ccccc2)C1 (configuration not stated)	5%	0%
CCOC(=O)Nc1cc(C)ccc1OC	-12%	-5%
CC1CCN(C(=S)c2cn(Cc3cccc(F)c3)c3ccccc23)CC1	1%	?
C[C@H](CO)N1C[C@H](C)[C@H](CN(C)Cc2cccc(C(F)(F)F)c2)OCc2ccccc2-c2c(n(C)c3ccccc23)C1=O	-7%	-21%
CSc1nnc(CCNS(=O)(=O)c2ccc(Br)cc2)n1C	-2%	-5%
O=C(CNC(=O)c1ccco1)NCC(=O)OCc1ccc(Cl)cc1	-3%	-7%
O=C(O)CCSc1nnnn1-c1ccccc1	-16%	nt
O=C(Nc1ccc(OC(F)(F)F)cc1)c1cnc2n(c1=O)CCS2	-10%	-26%
CCc1nn(CC(=O)N2CCN(c3cccc(C(F)(F)F)c3)CC2)c(=O)c2cc3occc3n12	-2%	-7%
COc1ccccc1CNC(=O)CCC(=O)N1Cc2ccccc2Oc2ncccc21	-2%	2%
COc1ccc(N=C2S/C(=C\c3ccc(C)s3)C(=O)N2CC(C)C)cc1	0%	-5%
OC[C@H]1OC(O)[C@H](O)[C@@H](O)[C@H]1O (some centres not stated)	-11%	-1%
COc1cc(S(=O)(=O)Nc2ncccc2C)c(OC)cc1Cl	-13%	nt
S=C(NCCc1ccccc1)Nc1c(Cl)cccc1Cl	-21%	-11%
Carrying on:
SMILES	VACV Venus inh	Vaccinia mCherry
N#Cc1c(NC(=O)c2cc(C3CC3)on2)sc2c1CCC2	-18%	-3%
COc1ccc(N2CCN(CC(=O)Nc3cccc(S(=O)(=O)N4CCOCC4)c3)CC2)cc1	-21%	-6%
CCN(CCCNC(=O)CCc1nc(-c2ccc(C)cc2)no1)c1cccc(C)c1	-27%	-10%
Cc1cc(NC(=O)CCC(=O)N(c2ccc(F)cc2)C(C(=O)NC2CCCC2)c2ccc(C)o2)no1 (configuration not stated)	-11%	-3%
S=C(NCc1ccccc1)NC1CCCc2ccccc21 (configuration not stated)	-12%	0%
O=C1CC(SCc2nc3ccccc3[nH]2)C(=O)N1c1cccc(F)c1 (configuration not stated)	-3%	-9%
CNC(=O)CCCN1C(=O)CCn2nc(-c3cn(C)c4ccccc34)cc21	-11%	-11%
Cc1ccc(C(c2ccccc2)c2c(C)[nH]c3ccccc23)s1 (configuration not stated)	1%	-8%
c1ccc2c3c([nH]c2c1)CCNC3	1%	?
COc1cc(S(=O)(=O)Nc2cccnc2)ccc1F	-12%	nt
COc1ccc(N(CC(=O)NC2CCCCC2)C(=O)CCC(=O)Nc2nc(C)cs2)cc1OC	2%	11%
Cc1ccc(Nc2c(-c3ccc(C)o3)nc3ncccn23)cc1	-13%	-13%
O=C(C1CCCCC1)N1CCN(c2ccccc2F)CC1	-14%	-16%
CCOc1nc(N2CCCCC2)nc(-n2cc(-c3ccccc3)nn2)n1	-8%	nt
O=C(CNS(=O)(=O)c1ccccc1F)NNC(=O)c1ccc(Br)cc1	-19%	-10%
COc1ccccc1-c1ccc2ncnc(N(C)C)c2c1	0%	9%
CC(=O)N1CCc2cc(S(=O)(=O)NCC(=O)NCc3ccccc3Cl)ccc21	-6%	i
CCOC(=O)c1cc(C#N)c(N2CCCCC2)nc1-c1ccccc1	19%	-12%
COc1ccc(NC(=O)C2C(=O)N(C)C3(C)CC2c2ccccc2O3)cc1 (configuration not stated)	-17%	i
CCCS(=O)(=O)Nc1ccc2cn[nH]c2c1	-2%	i
O=C(Nc1ccc2c(c1)OCCO2)c1coc2ccccc2c1=O	-25%	?
Cc1ccc(S(=O)(=O)N2CCC(C(=O)NNC(=O)c3ccc(F)cc3)CC2)cc1	2%	-4%
S=C(c1ccc(-c2ccccc2Cl)o1)N1CCOCC1	-5%	i
COc1ccc(C(=O)CSc2nccc(=O)[nH]2)cc1	16%	nt
CCCCCC(O)CCC(=O)NNC1=CC(=O)CC(C)(C)C1 (configuration not stated)	-4%	1%

Pulled by structure from above, two records:
SMILES	VACV Venus inh	Vaccinia mCherry
S=C(NCc1ccccc1)NC1CCCc2ccccc21 (configuration not stated)	-12%	0%
CCCS(=O)(=O)Nc1ccc2cn[nH]c2c1	-2%	i

Additional structures:
SMILES	VACV Venus inh	Vaccinia mCherry
CC(C)(C)c1ccc(NC(=S)NCc2cccs2)cc1	?	-13%[1.46 µM]
Cc1cccc(/C=N/c2sc3c(c2C(=O)OC(C)(C)C)CCN(C)C3)c1O	-12%	i
Cc1cccc(CN2C(=O)N(c3ccc(C(C)C)cc3)S(=O)(=O)c3ccccc32)c1	-4%	-8%
N#C/C(=C\c1cccnc1)C(=O)Nc1ccc(O)cc1F	5%	i
Cc1ccc(-c2nnc3n2CCCCC3)cc1	1%	nt
O=C(COc1ccccc1C(=O)NCC1CCCO1)Nc1ccc(Cl)cc1Cl (configuration not stated)	0%	i
O=C(O)c1ccc(Cn2cnc3sc4c(c3c2=O)CCCC4)cc1	-11%	-15%
COCC(=O)N=Nc1c(O)[nH]c2ccccc12	-9%	i
CCCCCCC(C)n1[nH]c(=O)c2c(C)cc(=O)[nH]c21 (configuration not stated)	-7%	-3%
COc1ccc(OCC(=O)N2CCN(Cc3ccc4c(c3)OCO4)CC2)cc1	-18%	-5%
CCOC(=O)c1c(P(=O)(N2CCOCC2)N2CCOCC2)noc1N	?	?
CCCN(C)C1CN(Cc2cn(CCCC(=O)OC)nn2)S(=O)(=O)C1 (configuration not stated)	6%	1%
COC(=O)[C@@]12C[C@@H](CC(=O)N3CCCC3)C(=O)N(Cc3cccc4ccccc34)C1=CCC(C)(C)C2	3%	-17%
O=C(c1ccccc1F)N1CCN(S(=O)(=O)c2ccc(S(=O)(=O)N3CCCCC3)cc2)CC1	-1%	-3%
COc1ccc(S(=O)(=O)NC2CCCCC2)cc1C(=O)N1CCCCC1	-10%	-23%
CCOC(=O)c1sc(NC(=O)c2cccnc2)c(C#N)c1C	12%	-13%[1.46 µM]
CC1(NC(=O)N2CCOCC2)CCS(=O)(=O)C1 (configuration not stated)	-7%	-6%
COC(C[C@H](O)C[C@@H](O)[C@H](C)OCc1ccccc1)OC	-9%	i
CCN(CC)S(=O)(=O)c1cccc(C(=O)NCC2CCCO2)c1 (configuration not stated)	1%	-13%
Cc1ccccc1N1C(=O)CSC1=C(C#N)C#N	23%	3%
NC(=O)Cn1nc([N+](=O)[O-])nc1Oc1ccccc1C(=O)N1CCOCC1	-1%	-11%
CCOC(=O)c1ccccc1Oc1c(F)c(F)nc(NCCO)c1F	-6%	-13%
COc1ccc(Cl)cc1S(=O)(=O)NCc1cccs1	-12%	nt
CC(C)(C)c1ccc(CC(=O)N2CCC2(C)C(=O)N2CCCCC2)cc1 (configuration not stated)	-20%	i
COc1cc2c(cc1OC)C(c1ccccc1C(F)(F)F)CC(=O)N2 (configuration not stated)	-15%	-10%
Next entries
SMILES	VACV Venus inh	Vaccinia mCherry
COc1ccccc1/C=C/C(=O)Nc1ccc2c(c1)OCCO2	-29%	-13%
Cc1c(C(=O)N(C)C)sc2c1c(=O)n(-c1ccc(F)cc1)c(=O)n2CC(=O)N(C)c1ccccc1	-1%	-13%
CSc1ccc(CCNC(=O)c2c(C)oc3ncn(C)c(=O)c23)cc1	-10%	-26%
C=CCn1c(C23CC4CC(CC(C4)C2)C3)n[nH]c1=S	-29%	-8%
CCn1c(CSc2nnc(-c3ccncc3)n2C)nc2cc(C(=O)O)ccc21	81%[activator]	8%
N#CC(Sc1ccccn1)c1ccc(Cl)cc1Cl (configuration not stated)	-20%	-28%
CN(Cc1ccccc1)C(=O)C(=O)c1cn(CC(=O)N2CCCC2)c2ccccc12	-13%	i
Cc1cccc(NC(=O)Cn2nc(C)c3nn(-c4ccc(Cl)cc4)c(C)c3c2=O)c1C	-14%	-20%
CCN(c1nc(N)c(C(=O)N=C(N)N)nc1Cl)C(C)C	-28%	-16%
O=C(NC(=S)Nc1ccc(F)c([N+](=O)[O-])c1)c1ccccc1F	-26%	?
O=C(NCCC1=CCCCC1)c1[nH]c(C(F)(F)F)nc1-c1ccccc1	-2%	-2%
CCOC(=O)c1c(-c2ccccc2)csc1NC(=O)c1nc(SCC)ncc1Cl	5%	-12%
Cc1ccc(SCC(=O)NC(=O)NC2CCCC2)c(C)c1	-14%	-8%
CCOc1ccccc1NC(=O)c1ccc(C(=O)Nc2ccccc2OCC)cc1	-16%	-10%
CCN(CC)c1cc(C)c2cc(NC(=O)c3cccs3)ccc2n1	-26%	?
Cc1nc(-c2noc(-c3ccc(Cl)cc3)n2)c(C(F)(F)F)o1	-10%	-3%
O=S(=O)(Nc1cccnc1Cl)c1ccc(-c2ccccc2)cc1	5%	-5%
CCOc1ccc(CCNS(=O)(=O)c2cnc[nH]2)cc1OCC	-17%	-14%
Cn1cc(/C=C2\SC(=S)N(N3CCOCC3)C2=O)c2ccccc21	-7%	i
COc1ccc(-c2cc(=O)oc3c(C)c(OC(C)C(=O)NCc4ccccn4)ccc23)cc1 (configuration not stated)	-12%	-14%

A run of entries of the results above:
SMILES	VACV Venus inh	Vaccinia mCherry
CC1(NC(=O)N2CCOCC2)CCS(=O)(=O)C1 (configuration not stated)	-7%	-6%
COC(C[C@H](O)C[C@@H](O)[C@H](C)OCc1ccccc1)OC	-9%	i
CCN(CC)S(=O)(=O)c1cccc(C(=O)NCC2CCCO2)c1 (configuration not stated)	1%	-13%
Cc1ccccc1N1C(=O)CSC1=C(C#N)C#N	23%	3%
NC(=O)Cn1nc([N+](=O)[O-])nc1Oc1ccccc1C(=O)N1CCOCC1	-1%	-11%
CCOC(=O)c1ccccc1Oc1c(F)c(F)nc(NCCO)c1F	-6%	-13%
COc1ccc(Cl)cc1S(=O)(=O)NCc1cccs1	-12%	nt
CC(C)(C)c1ccc(CC(=O)N2CCC2(C)C(=O)N2CCCCC2)cc1 (configuration not stated)	-20%	i
COc1cc2c(cc1OC)C(c1ccccc1C(F)(F)F)CC(=O)N2 (configuration not stated)	-15%	-10%
COc1ccccc1/C=C/C(=O)Nc1ccc2c(c1)OCCO2	-29%	-13%
Cc1c(C(=O)N(C)C)sc2c1c(=O)n(-c1ccc(F)cc1)c(=O)n2CC(=O)N(C)c1ccccc1	-1%	-13%
CSc1ccc(CCNC(=O)c2c(C)oc3ncn(C)c(=O)c23)cc1	-10%	-26%
C=CCn1c(C23CC4CC(CC(C4)C2)C3)n[nH]c1=S	-29%	-8%
CCn1c(CSc2nnc(-c3ccncc3)n2C)nc2cc(C(=O)O)ccc21	81%[activator]	8%
N#CC(Sc1ccccn1)c1ccc(Cl)cc1Cl (configuration not stated)	-20%	-28%
CN(Cc1ccccc1)C(=O)C(=O)c1cn(CC(=O)N2CCCC2)c2ccccc12	-13%	i
Cc1cccc(NC(=O)Cn2nc(C)c3nn(-c4ccc(Cl)cc4)c(C)c3c2=O)c1C	-14%	-20%
CCN(c1nc(N)c(C(=O)N=C(N)N)nc1Cl)C(C)C	-28%	-16%
O=C(NC(=S)Nc1ccc(F)c([N+](=O)[O-])c1)c1ccccc1F	-26%	?
O=C(NCCC1=CCCCC1)c1[nH]c(C(F)(F)F)nc1-c1ccccc1	-2%	-2%
CCOC(=O)c1c(-c2ccccc2)csc1NC(=O)c1nc(SCC)ncc1Cl	5%	-12%
Cc1ccc(SCC(=O)NC(=O)NC2CCCC2)c(C)c1	-14%	-8%
CCOc1ccccc1NC(=O)c1ccc(C(=O)Nc2ccccc2OCC)cc1	-16%	-10%
CCN(CC)c1cc(C)c2cc(NC(=O)c3cccs3)ccc2n1	-26%	?
Cc1nc(-c2noc(-c3ccc(Cl)cc3)n2)c(C(F)(F)F)o1	-10%	-3%
O=S(=O)(Nc1cccnc1Cl)c1ccc(-c2ccccc2)cc1	5%	-5%
CCOc1ccc(CCNS(=O)(=O)c2cnc[nH]2)cc1OCC	-17%	-14%
Cn1cc(/C=C2\SC(=S)N(N3CCOCC3)C2=O)c2ccccc21	-7%	i
COc1ccc(-c2cc(=O)oc3c(C)c(OC(C)C(=O)NCc4ccccn4)ccc23)cc1 (configuration not stated)	-12%	-14%

From PubChem BioAssay
